NPYLR7 ag: activates Aedes aegypti NPYLR7 receptor; hit rate 0.15% among 270,000; activation, % at 10 µM; HEK293T NPYLR7/Galpha15, GCaMP6s calcium fluorescence; in the data active = activation above about 40%;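 also: 0% = vehicle and 100% = reference agonist at the receptor; some compounds past the cut are filed as inactive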
NPYLR7 ag max-min: further read-out of NPYLR7 ag, marked with its call; activation, %; measured here: Max-Min RFU normalised activation; some inactives read as strong as hits;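 span of the calcium signal over five minutes; 0% = vehicle and 100% = native peptide agonist; compound fluorescence can raise it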
An asterisk follows results filed as active; & = joins results of further samples.

SMILES | NPYLR7 ag | NPYLR7 ag max-min
CNCc1cc(C)c(OCc2ccccc2Cl)c(C)c1 | 5 | 2
Cc1ccccc1C(=O)Nc1c2c(nn1CC(=O)NCc1ccccc1)CSC2 | -7 | 0
COc1cccc(CNC(=O)C2CCN(C(=O)[C@@H](Cc3ccccc3)NC(=O)C34CC5CC(CC(C5)C3)C4)CC2)c1 | 28 | 25
CCOC(C)C(=O)Nc1ccc(OC2CCCCC2O)cc1 (stereo not given) | 12 | 9
O=C(NCc1csc(C2CC2)n1)N1CCCC2CCCC21 (stereo not given) | -22 | -25
Cc1noc(C)c1C(=O)N(CCC#N)CC1CCCO1 (stereo not given) | -1 | -1
Nc1n[nH]c2ccc(-c3ccccc3CN3CCOCC3)cc12 | 4 | 1
CN(CC1CC(c2ccc(Cl)cc2)=NO1)C(=O)C1CC1 (stereo not given) | 26 | 33
Fc1cccc(Nc2nc3ccccc3n3nnnc23)c1 | 12 | 4
CN1CCN(C(c2ccc(Cl)cc2)C2Sc3nc(-c4ccco4)nn3C2=O)CC1 (stereo not given) | -3 | -4
CCCN1C(=O)C(=Cc2c(N3CCCCC3)nc3ccc(C)cn3c2=O)SC1=S | -1 | 22
CC1Cc2ccccc2N1C1=NS(=O)(=O)c2ccccc21 (stereo not given) | 7 | 0
CC(=O)c1c(C)nc(C)nc1NC(=O)C(C)C | 1 | -4
COc1ccc2c(c1)-c1sc(C(=O)NCCC3=CCCCC3)cc1CC2 | 4 | 1
O=C(C1CC2(CCNCC2)CN1)N1CCN(Cc2ccccc2)CC1 (stereo not given) | 16 | 5
Cc1nn(C(=O)c2ccc([N+](=O)[O-])cc2)c(C)c1Sc1ccccc1 | 1 | 1
CC1(C)CC(C(=O)NCc2cccnc2-n2ccnc2)CCO1 (stereo not given) | -1 | 0
CC(OS(=O)(=O)c1ccccc1)C(F)(F)[N+](=O)[O-] (stereo not given) | -7 | -15
CCOC(=O)c1nn(-c2ccccc2)c(=O)c2c(NC(=O)Cc3cccc4ccccc34)scc12 | 2 | -2
COc1ccc2nc(SCc3cc(=O)oc4cc5c(cc34)CCC5)[nH]c2c1 | 0 | 1
c1ccc(C2CCCN2Cc2nc(-c3cccs3)no2)nc1 (stereo not given) | 0&-2 | -4&-4
COc1cccc(CC(=O)Nc2ccc(F)cc2Cl)c1 | 1 | -2
COc1cccc(C=CC(=O)NCCN2C(=O)SC(=Cc3ccccc3)C2=O)c1OC(F)F | -3 | -8
CCCc1[nH]n(-c2ccc(C)cc2C)c(=O)c1C1=C(N(CC)CC)C(=O)N(c2ccccc2F)C1=O | 4 | 11
O=C(CSc1nnnn1C1CCCC1)N1CCC2CCCCC2C1 (stereo not given) | 6 | -14
O=c1[nH]c(N2CCC(OCC3CCCCO3)CC2)nc2ccccc12 (stereo not given) | 3 | 1
CNC(=O)NC(=O)CSc1nc2ccccc2c(=O)n1CC(=O)OC | -5 | -10
Cc1ccc(-c2nc(C)cc(N3CCN(S(=O)(=O)c4ccc5ccccc5c4)CC3)n2)cc1 | -8 | -8
CN(C)c1ccc(C(=O)N2CCCC(CNC(=O)c3cccc4ccccc34)C2)cc1 (stereo not given) | 0 | -5
CC(=O)N1N=C(c2ccc(F)cc2)CC1c1cccc(F)c1 (stereo not given) | 2 | 5
CC[C@H]1CN(C(=O)C(C)(C)C)CC[C@H]1CC(=O)N(CC)C(=O)NCCCN(C)C | -12 | -19
CN(CC(=O)Nc1ccccc1Cl)CC(=O)N1CCCc2cccc(F)c21 | 0 | -3
CC(=O)OCCOc1nc(N(C)C)nc(N(C)C)n1 | 3 | -2
COCC(C)NCCC(=O)Nc1cc(F)ccc1F (stereo not given) | 4 | 1
Cc1cn2c3c(=O)n(CC(C)C)c(=O)n(C)c3nc2n1-c1ccc(C(F)(F)F)cc1 | 0 | -1
CCOC(=O)C1CCCN(C(=O)c2csc(CSc3nnc(-c4cccnc4)n3-c3ccccc3F)n2)C1 (stereo not given) | -1 | 4
COCCN1CCC(Cn2cnc(-c3ccccc3)c2-c2cc(C)[nH]n2)C1 (stereo not given) | -7 | -16
CC(C)C(=O)Nc1nc2nc(-c3ccccc3)cc(=O)n2[nH]1 | -2 | -10
FC(F)(F)c1nnc2sc(-c3cccc4ccccc34)nn12 | 5 | 5
CCc1cc2c(=O)n(Cc3ccco3)c(=S)[nH]c2s1 | 6 | 10
CC(C)(C)c1ccc(-n2ncc(C(=O)N3CCC4(CC3)OCCO4)c2N)cc1 | 0 | 1
CN(C)c1ccc(C2CC(c3ccc(F)cc3)=Nc3nnnn32)cc1 (stereo not given) | 24 | 14
CCCNC(=O)C1(C)CCCN(Cc2cccc(C#N)c2)C1 (stereo not given) | 5 | -1
OC(CCN1CCCC1)(c1ccccc1)C1CCCCC1 (stereo not given) | -6&-7&3 | -12&-12&-4
COCCNC(=O)Nc1ccc(C(=O)N2CCCCC2)c(Cl)c1 | 13 | 10
Cc1cnc(C(=O)Nc2ccccc2N2CCCCC2)cn1 | -4 | -6
Cc1cc(C)c(C(=O)COC(=O)c2ccc(Cl)c(S(=O)(=O)N3CC(C)OC(C)C3)c2)cc1C (stereo not given) | -2 | 1
CNC(=O)c1ccsc1NC(=O)c1ccc(Br)cc1 | 5 | 3
C=CCc1ccc(OCCCOc2ccc(C)cc2OC)c(OC)c1 | 17 | 13
O=C(CSc1ncn[nH]1)Nc1cccc(S(=O)(=O)N2CCOCC2)c1 | -10 | -5
C=CCSc1nc(C)c(CC=C)c(=O)[nH]1 | 1 | 9
COc1ccc(NC(=O)CSc2nc(=O)n3cc(C)ccc3n2)c(OC)c1 | 2 | 1
O=C(O)c1c[nH]c2ccc(S(=O)(=O)NC3CCCCC3)cc2c1=O | 1 | -1
O=C(NN=Cc1ccc(F)cc1)c1[nH]nc2c1CCc1ccccc1-2 | 2 | 2
Cc1cc(Cl)ccc1OCC(=O)NN=Cc1ccco1 | 4 | 0
O=C(c1cscn1)N1CCC2(CCCN(Cc3ccccc3F)C2=O)C1 (stereo not given) | 8 | 2
COc1cccc(C2c3cccn3CCCN2Cc2ccc(F)c(F)c2)c1 (stereo not given) | 15 | 16
CCOc1ccc2c(c1)sc(=N)n2Cc1cc(C)cc2cccnc12 | 7 | 7
O=C(NC1CCN(c2ccccc2C(=O)NCCc2ccccc2)CC1)c1cccc(F)c1 | -1 | 6
CCC(CO)NCC(O)Cn1c2c(c3cc(C)ccc31)CCCC2 (stereo not given) | -3 | -3

(list continues)
SMILES | NPYLR7 ag | NPYLR7 ag max-min
COc1ccc(-n2c(=O)[nH]c3c(C(N)=O)nc(-c4cccnc4)nc32)cc1OC | 15 | 10
CCCc1cc(=O)n(CC(=O)Nc2ccc([N+](=O)[O-])cc2)c(-n2nc(C)cc2C)n1 | 0 | 3
Cc1ccc(N=Cc2c(Nc3cccc(Cl)c3)nc3c(C)cccn3c2=O)cc1 | -3 | -6
c1ccc(NNC2=NCCS2)cc1 | -3 | -7
COc1ccc(NC(=O)c2cnn3c2NC(c2ccco2)CC3C(F)(F)F)cc1OC (stereo not given) | -1 | -6
COc1ccc(OC)c2c1CN(C(=O)C(NC(=O)c1ccc(Cl)cc1)C(C)C)CC2O (stereo not given) | 5 | 3
CCN(C)C(=O)c1cc(N2CCN(c3ccc(OC)cc3)CC2)nc2ccccc12 | 7 | 1
CC(C)(C)C(=O)C(Cc1ccc(C#N)cc1)=C(O)C(C)(C)C | 9 | 7
CCOC(=O)C1(C)CCCN1C(=O)c1ccncc1 (stereo not given) | 7 | 3
CCC(CC)C(=O)N(C)c1c(C)nc2c(OCCC3CCCCC3)cccn12 | 9 | -2
CCc1nc2ccc(C(=O)NCCN(C)C)cn2c1N(C)CCC(C)C | -4 | -9
C=C(C)COc1ccc(C(=O)NCCc2ccncc2)cc1 | -8 | -14
NC(=O)c1c(NC(=O)CSc2nnnn2C2CCCC2)sc2c1CCC2 | 0 | -2
C[C@]1(OC(=O)/C=C/c2ccccc2)C[C@@H](O)[C@]2(O)C=CO[C@@H](O[C@@H]3O[C@H](CO)[C@@H](O)[C@H](O)[C@H]3O)[C@@H]21 | 26 | 13
CC(C)c1ccc(-n2ccc3nc(N4CCOCC4)ncc3c2=O)cc1 | 6 | 4
C=CCn1c(SCC(C)=O)nc2sc3c(c2c1=O)CCCC3 | 18 | 14
O=C(NCCCn1nc(-c2ccco2)ccc1=O)Nc1ccc(OC(F)(F)F)cc1 | -3 | -2
CN1C(=O)NC(c2cccc(Cl)c2Cl)C2=C1CN(CC(=O)NC1CCCc3ccccc31)C2=O (stereo not given) | 1 | 10
Cc1cc2cc(CCNC(=O)c3cc4ccccc4o3)c(=O)[nH]c2cc1C | 1 | 48
Cc1noc(C(C)NC(=O)c2cc3c(s2)CCC(C(C)(C)C)C3)n1 (stereo not given) | 3 | 1
CCn1c(O)c(C(C)=NC(Cc2ccccc2)C(=O)OC)c(=O)n(CC)c1=S (stereo not given) | -2 | -3
COc1cccc(F)c1-c1c(-c2ccccc2)ncn1CCc1cc(=O)[nH]cn1 | 2 | -2
COc1cc(CC(=O)N2CCC3(CCCNC3)C2)cc(OC)c1OC (stereo not given) | 20 | 10
COc1ccc(S(=O)(=O)NC2CCCC2)cc1 | -1 | -3
CCNC(=S)N1CCC(C(NC(=O)c2ccccc2C)C(=O)N2CCCC2)CC1 (stereo not given) | 16 | 13
CCc1cccc2c(C(CC(=O)NCCCOC)c3cccc(OC)c3OC)c[nH]c12 (stereo not given) | -6 | -7
COc1ccc(OCCSc2ncnc3nc[nH]c23)cc1 | 5 | 4
CCOC(=O)C1(Cc2ccccc2Cl)CCN(S(=O)(=O)c2cccc(F)c2)CC1 | 9&9 | 7&11
COc1ncc(CN2CCC(CNC(=O)c3ccoc3C)C2)cn1 (stereo not given) | 4 | 2
COc1ccc(CN2CCN(Cc3cnc(C)s3)CC2CCO)cc1C (stereo not given) | -8 | -8
O=C1C(C(c2ccco2)N2CCN(c3ccccc3F)CC2)Sc2nc(-c3ccco3)nn21 (stereo not given) | 2 | 1
Cc1ccc(C)c(S(=O)(=O)Nc2ccc(Nc3ccc(-n4ccc(C)n4)nn3)cc2)c1 | -3 | -9
COc1cc(O)ccc1-c1nccn1C1CCN(Cc2ccccc2)C1 (stereo not given) | 3 | 0
Cc1cc2c(cc1C)NC(CC(=O)NC(C)C)C(=O)N2 (stereo not given) | 2 | -1
CC1(Cc2ccc(C(=O)c3ccccc3)cc2)C(=O)Nc2c(Cl)ccc(Cl)c21 (stereo not given) | 1 | 1
NCCSc1c(-c2ccccc2)[nH]c2ccccc12 | -3 | -11
CC(=O)c1cccc(NC(=O)CSc2nc(=O)n(CCN3CCOCC3)c3c2CCCC3)c1 | -3 | 3
O=C(CCC(=O)N1CCC(c2ccncc2)CC1)Nc1cccc(O)c1 | -2 | -4
O=C(c1ccc(CSc2nc3cc(Cl)ccc3o2)cc1)N1C2CCC1CC(Oc1ccc3c(c1)OCO3)C2 (stereo not given) | 6 | -5
COc1ccc(CN(C)Cn2[nH]c(-c3ccc(C)cc3)nc2=S)c(OC)c1OC | -5 | -11
Cc1nc(Nc2ccc(NC(=O)C(C)C)cc2)cc(-n2cccn2)n1 | -7 | -13
CCOC(=O)CN1C(=O)CN(C(=O)COC)CCC(OC)c2ccccc21 (stereo not given) | 6 | 11
O=C(Cn1c(O)c(N=Nc2ccc(F)cc2)c2cc(Cl)ccc21)Nc1ccccc1F | -1 | -5
CC(=O)N1CCC(Cn2cc(Cn3c(C)nc4ccccc43)nn2)CC1 | 17 | 11
O=C(NCC1(Sc2ccccc2)CC1)C1CCOCC1 | 12 | 4
CCOC(=O)c1ccc(N=C2SC(C(=O)Nc3ccc(F)cc3)CC(=O)N2C)cc1 (stereo not given) | 3 | 2
Nc1c(C(=O)NCc2cccs2)c2nc3ccccc3nc2n1/N=C\c1ccccc1O | 23 | 11
Cn1nc2c(c1C(=O)N1CCn3c(C(N)=O)cnc3C1)CCCC2 | 10 | 8
CC(C(=O)Nc1ccccc1C#N)N1CCC(C(=O)N2CCCC2)CC1 (stereo not given) | 5 | 16
COc1ccc(F)c(-c2ncccc2NC(=O)C(C)C)c1 | 8 | 5
CC(=O)N1CCN(CC(=O)Nc2cc(Cl)ccc2F)CC1 | -4 | -5
Cc1ccc(CN2C=Nc3ccccc3S2(=O)=O)cc1 | 7 | 7

Source: PubChem BioAssay (Fisher Drug Discovery Resource Center)

An excerpt; count on the stated rates, not on these rows.
